# Screening results as filed in PubChem.
# Cruzain noTriton = blocks cruzain activity in detergent-free assay; AID 1476; Potency, µM, for inactives: max response, negative = inhibition, hits mostly inhibitors; actives 2.3% (n = 200,000); purified cruzain, Z-FR-AMC fluorescence, no detergent; P25779; active = well fitted curve in the direction sought with a large enough effect; inconclusive = small, poorly fitted or top-dose-only effect, or another doubt; inactive = no such curve, though single readings can be large; an effect the other way counts as inactive or inconclusive;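 note: plate controls were enzyme without inhibitor for no effect and buffer without enzyme for full effect; nearly all actives have a fitted effect of over 40% in size; top concentration of the series not given in the record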
# Target sequence (P25779 123-467 limits assumed): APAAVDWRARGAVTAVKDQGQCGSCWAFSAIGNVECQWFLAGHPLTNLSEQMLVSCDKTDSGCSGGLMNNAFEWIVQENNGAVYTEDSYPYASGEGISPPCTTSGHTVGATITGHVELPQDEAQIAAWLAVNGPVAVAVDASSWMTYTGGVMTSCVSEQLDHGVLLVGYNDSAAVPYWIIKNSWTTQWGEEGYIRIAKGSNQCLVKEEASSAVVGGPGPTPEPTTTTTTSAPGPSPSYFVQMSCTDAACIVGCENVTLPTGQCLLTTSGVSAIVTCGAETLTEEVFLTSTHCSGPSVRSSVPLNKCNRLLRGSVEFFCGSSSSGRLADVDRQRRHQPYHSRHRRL
#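 Purified cruzain at 1.5 nM, pre-incubated 15 min with compound at room temperature in 100 mM sodium acetate pH 5.5, 5 mM DTT, 0.00005% Triton X-100. Reaction started with 2 uM Z-FR-AMC; AMC fluorescence increase over 60 s gives rate.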
# Lassa entry inh = Lassa virus entry inhibition. Lassa virus pseudotype entry inhibition, cell reporter; control for the full effect not named in the record. Potency, µM (titrated, usually from 37.9 µM), inactives show at the highest dose activity change, negative = inhibition, hits mostly inhibitors. actives 1.2% (n = 300,000); active means well fitted inhibition curve with a large enough effect; inconclusive means small, poorly fitted or top-dose-only effect, or effect the other way; inactive means flat fitted curve, though single readings scatter; tested in HEK293 cells; note: % is set by controls: 0 for no effect and ±100 for the full control effect; nearly all actives have a fitted effect of over 50% in size; luciferase read-out
# RE007 growth inh = less growth of the S. pombe RE007 Vpr strain. S. pombe RE007 Vpr strain, BacTiter-Glo ATP luminescence, 24 h; control for the full effect not named in the record. Potency, µM (top dose mostly 92.2 µM), without a hit: top-dose activity change, negative = less growth. actives 0.21% (n = 360,000). AID 651644; active = well fitted falling curve with a large enough effect; inconclusive = small, poorly fitted or top-dose-only effect; inactive = no such curve, though single readings can be large or run the other way;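 note: % is set by controls: 0 for no effect and ±100 for the full control effect; nearly all actives have a fitted effect of over 50% in size; the assay follows cell death caused by Vpr and the record does not say whether a fall means rescue or toxicity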
#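 Fission yeast RE007 carrying one integrated HIV-1 vpr copy, seeded at OD 0.01 in PMG+AL medium with 23 nL pinned compound. Grown 24 h at 30 degrees; viability read by BacTiter-Glo luminescence after 5 min.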
# Cruzain inh Det = blocks cruzain activity in presence of Triton detergent; P25779; purified cruzain, Z-FR-AMC fluorescence, 0.01% Triton; Potency, µM, inactives show max response, negative = inhibition, hits mostly inhibitors; actives 0.43% (n = 200,000); AID 1478; active = well fitted curve in the direction sought with a large enough effect; inconclusive = small, poorly fitted or top-dose-only effect, or another doubt; inactive = no such curve, though single readings can be large; an effect the other way counts as inactive or inconclusive;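 note: plate controls were neutral wells for no effect and buffer without enzyme for full effect; nearly all actives have a fitted effect of over 40% in size; top concentration of the series not given in the record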
#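 Enzyme 1.5 nM, Z-FR-AMC 2 uM, NaOAc 100 mM pH 5.5, DTT 5 mM, Triton X-100 0.01%; 15 min RT compound preincubation; kinetic ex360/em450, 60 s delta.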
# StopGo reporter = FMDV 2A StopGo reporter, luciferase signal | human cells with a luciferase reporter of 2A StopGo recoding; control for the full effect not named in the record | Potency, µM (series often up to 57.9 µM), inactives show top-dose signal change, negative = less light | actives 1.2% (n = 410,000) | AID 1159524; active = well fitted falling curve with a large enough effect; inconclusive = small, poorly fitted or top-dose-only effect; inactive = no such curve, though single readings can be large or run the other way; tested in HEK293T cells; note: % is set by controls: 0 for no effect and ±100 for the full control effect; nearly all actives have a fitted effect of over 45% in size; luciferase light after 4 h
# SARS PLpro yeast = inhibitors of SARS-CoV papain-like protease in yeast. S. cerevisiae expressing SARS-CoV PLpro, growth rescue; control for the full effect not named in the record. Potency, µM (doses to about 32.9 µM), inactives show at the highest dose activity, positive = growth rescue. actives 0.19% (n = 330,000). AID 485353; note: 0% is about no effect; nearly all actives have a fitted effect of over 55% in size; growth read by luminescence after 48 h
# MARV entry inh = blocks Marburg virus binding to or entry into cells. Marburg virus pseudotyped entry inhibition, cell reporter; control for the full effect not named in the record; about a third of the inactives were read at about 46 µM. Potency, µM (titrated, usually from 37.8 µM), for inactives: at the top dose activity change, negative = inhibition, most hits filed as inhibitors. actives 1.8% (n = 300,000); active = well fitted inhibition curve with a large enough effect; inconclusive = small, poorly fitted or top-dose-only effect, or effect the other way; inactive = flat fitted curve, though single readings scatter; tested in HEK293 cells; about a fifth of its hits are not listed in these tables; note: % is set by controls: 0 for no effect and ±100 for the full control effect; luciferase read-out
# NS1 inh = blocks influenza NS1 protein function. S. cerevisiae slowed by influenza A NS1, growth recovery by OD600. Potency, µM (titrated, usually from 46.1 µM), inactives show at the top dose activity, positive = more growth. actives 0.4% (n = 270,000). AID 2326; note: actives are rising curves; nearly all actives have a fitted effect of over 50% in size
#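 S. cerevisiae expressing influenza A NS1, grown in glucose, washed, then diluted 1:100 into pH 6.0 -URA galactose medium with 23 nl compound. Growth recovery read as OD600; NS1-free strain serves as control.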
# * marks the source's active call; other numbers are inactive results; ? = inconclusive; / = no result given; & = joins results of further samples; [ ] = another dose, or the depositor's remark. Unless noted, calls come from the whole dose curve; as a rule, active means well fitted rising curve with a large enough effect; inconclusive means small, poorly fitted or top-dose-only effect; inactive means no such curve, though single readings can be large or run the other way. Potency is the fitted concentration of half-maximal effect. No enrichment for hits (roughly 4.7% active in at least one column).
SMILES,Cruzain noTriton,Lassa entry inh,RE007 growth inh,Cruzain inh Det,StopGo reporter,SARS PLpro yeast,MARV entry inh,NS1 inh
CCC(=O)c1ccc(OCc2ccc(C#N)cc2)cc1,/,9%,16%,/,30%,-1%,-5%[46.1 µM],2%
CCCCNC(=O)CCNC(=O)c1ccc(C(C)(C)C)cc1,9%,12%,12%,4.7%,-10%,0%,7%,-2%
COc1ccc(-c2csc(NC(=O)CS(=O)(=O)c3ccccc3)n2)cc1,/,?,2%,/,?,0%,?,/
COc1ccc(NC(=O)/C(=C\c2ccc(OC)c(OC)c2)NC(=O)c2ccco2)cc1,/,/,-1%,/,-5%,0%,/,-2%
CCCN1C(=O)C(O)(C2COC(C)(C)CC2=O)c2ccccc21 (stereo not given),/,5%,-2%,/,-2%,-1%,?,2%
S=C(Nc1cccc2ccccc12)N1CCN(c2ncccn2)CC1,5%,-28%,-2%,1.3%,25%,8%,11%,-2%
Cc1nc(=O)c(-c2ccccc2)c(C)n1-c1ccc(S(N)(=O)=O)cc1,-6%,5%,-9%,8.8%,17%,6%,15%,23%
N#Cc1cc(Oc2cccc3cccnc23)c(-n2nnc3ccccc32)cc1C#N,?,?,-24%,7.3%,16µM*,-11%,?,-132%
Cc1ccc(C)n1-c1ccc(C(=O)O)cc1,0%,/,/,-2.7%,/,22%,2%,18%
CCN(c1cc(C)cc(C)c1)S(=O)(=O)c1nnc(NC(=O)C(C)C)s1,/,-20%,0%,/,13%,0%,?,6%
CN(C)CCNC(=O)c1cccn(Cc2cccc(C(F)(F)F)c2)c1=O,/,-1%,1%,/,-14%,-1%,1%[46.1 µM],2%
CC1=C(C(=O)OC(C)C)C(c2ccc3c(c2)OCO3)NC(=O)N1 (stereo not given),/,10%[46.1 µM],10%,/,-12%,5%,14%[46.1 µM],-8%

# 10 entries out of the list, ordered by length of the SMILES, falling.
SMILES,Cruzain noTriton,Lassa entry inh,RE007 growth inh,Cruzain inh Det,StopGo reporter,SARS PLpro yeast,MARV entry inh,NS1 inh
COc1ccc(NC(=O)/C(=C\c2ccc(OC)c(OC)c2)NC(=O)c2ccco2)cc1,/,/,-1%,/,-5%,0%,/,-2%
CCN(c1cc(C)cc(C)c1)S(=O)(=O)c1nnc(NC(=O)C(C)C)s1,/,-20%,0%,/,13%,0%,?,6%
N#Cc1cc(Oc2cccc3cccnc23)c(-n2nnc3ccccc32)cc1C#N,?,?,-24%,7.3%,16µM*,-11%,?,-132%
COc1ccc(-c2csc(NC(=O)CS(=O)(=O)c3ccccc3)n2)cc1,/,?,2%,/,?,0%,?,/
CC1=C(C(=O)OC(C)C)C(c2ccc3c(c2)OCO3)NC(=O)N1 (stereo not given),/,10%[46.1 µM],10%,/,-12%,5%,14%[46.1 µM],-8%
CCCN1C(=O)C(O)(C2COC(C)(C)CC2=O)c2ccccc21 (stereo not given),/,5%,-2%,/,-2%,-1%,?,2%
S=C(Nc1cccc2ccccc12)N1CCN(c2ncccn2)CC1,5%,-28%,-2%,1.3%,25%,8%,11%,-2%
CCCCNC(=O)CCNC(=O)c1ccc(C(C)(C)C)cc1,9%,12%,12%,4.7%,-10%,0%,7%,-2%
CCC(=O)c1ccc(OCc2ccc(C#N)cc2)cc1,/,9%,16%,/,30%,-1%,-5%[46.1 µM],2%
Cc1ccc(C)n1-c1ccc(C(=O)O)cc1,0%,/,/,-2.7%,/,22%,2%,18%

# (further entries)
SMILES,Cruzain noTriton,Lassa entry inh,RE007 growth inh,Cruzain inh Det,StopGo reporter,SARS PLpro yeast,MARV entry inh,NS1 inh
CCOc1ccc(-c2cc(CCCC(=O)N3CCN(c4ccc(OC)cc4)CC3)no2)cc1,-2%,?,3%,-2.7%,0%,-6%,?,-9%
C/C(=N\NC(=O)c1c(Cl)cnn1C)c1ccc(NC(=O)c2ccncc2)cc1,6%,-1%,2%,-2.2%,-17%,15%,-19%,16%
Nc1nc(SCc2c(Cl)cccc2Cl)n[nH]1,1%,2%,3%,2.6%,8%,2%,7%,-7%
O=C(c1ccc(S(=O)(=O)N2CCC(c3nc4ccccc4[nH]3)CC2)cc1)N1CCOCC1,8%,28%[14.3 µM],1%,3.5%,-4%,0%,0%,-3%
Cc1nc2ccc(S(=O)(=O)CCC(=O)Nc3ccc(C(C)C)cc3)cc2s1,-4%,16%[46.1 µM],/,0.0%,-7%,/,/,/
COc1ccc(C(=O)N(Cc2nc(-c3ccc(C)cc3)no2)C2CCCCC2)cc1OC,?,?,-16%,-6.6%,/,-16%,?,-38%
Cc1ccc(-n2c(C)nc3c(cnn3-c3ccccc3Cl)c2=O)cc1C,0%,8%,-5%,2.1%,-18%,-13%,-4%,-61%
C#CCn1c(/C=C/c2ccc(Cl)cc2)nc2ccccc21,-21%,?,/,-13%,-21%,/,?,/
CC1CCCCN1CC(O)c1c[nH]c2ccccc12 (stereo not given),/,15%,-6%,/,11%,-2%,4%,9%
CCN(CC(=O)Nc1c(F)cccc1F)C(=O)c1cc([N+](=O)[O-])ccc1N1CCCCC1,/,4%,0%,/,45%[activator],/,-10%,/
O=C(CN1C(=O)S/C(=C\c2cccs2)C1=O)Nc1ccc(O)cc1C(=O)O,/,/,15%,/,-19%,3%,/,29%
COc1ccccc1N1CCN(C(=O)C(=O)c2cn(CC(=O)N3CCCC3)c3ccccc23)CC1,/,/,12%,/,-17%,0%,/,5%
CC1CCCCN1CC(=O)N1CCCc2c1c(=O)oc1ccc(OCc3ccccc3)cc21 (stereo not given),10%,6%[46.1 µM],/,-6.9%,24%,/,?,/
CCC(C)NC(=O)C1c2ccccc2C(=O)N1Cc1ccc(F)cc1 (stereo not given),/,?,0%,/,3%,4%,?,-1%
CCc1nnc(NC(=O)C2=CCN(S(=O)(=O)c3ccc(F)cc3)CC2)s1,/,/,12%,/,-17%,2%,/,5%
COc1cc(C(CC(=O)Nc2ccccn2)N2Cc3ccccc3C2=O)cc(OC)c1OC (stereo not given),/,/,5%,/,6%,-1%,/,7%
CCOC(=O)CN1CC23C=CC(O2)C(C(=O)NCc2ccccc2OC)C3C1=O (stereo not given),-11%,/,4%,0.3%,-3%,6%,/,-14%
Cc1ccc(NC(=S)NCc2ccccc2)cc1[N+](=O)[O-],-1%,16µM*,1%,-9.0%,19%,-44%,7.1µM*,3%
Cc1ccc(Cn2cc(/C=C/C(=O)O)c(-c3ccccc3)n2)cc1,0%,24%,11%,-1.2%,18%,-2%,23%,-48%
CC(C)NS(=O)(=O)c1ccc(OCC(=O)N2CCc3ccccc3C2)cc1,/,-22%[46.1 µM],2%,/,-12%,0%,25%[46.1 µM],6%
Cc1ccc(NC(=S)N2CCCCC2CO)cc1C (stereo not given),/,5%,-16%,/,58%[activator],-1%,2%[46.1 µM],-7%
O=C(Nc1nc2ccc(SC(F)F)cc2s1)c1ccc(NS(=O)(=O)c2ccc(F)c(F)c2)cc1,32µM*,5%,3%,-1.3%,0%,3%,5%,?
CCN(CC)S(=O)(=O)c1ccc(-c2csc(C)n2)cc1,/,-11%,-19%,/,24%,-1%,3%,-2%
O=C1c2ccccc2C(=O)N1OCc1cccc(Cl)c1,-2%,13%,-1%,1.8%,-4%,3%,11%,-6%
Cc1nc(C(C)NC(=O)c2ccc(OC3CCN(Cc4ccccn4)CC3)cc2)c(C)s1 (stereo not given),/,/,-8%,/,-1%,1%,/,-15%
COc1ccc2nc(SCc3cnc(C)nc3N)[nH]c2c1,-14%,8%,0%,0.5%,/,-2%,-15%&-15%,5%
O=C(CN1C(=O)C2C3C=CC(C3)C2C1=O)Nc1nc(-c2ccccn2)cs1 (stereo not given),-6%,-15%,2%,-5.7%,-27%,2%,?,-5%
COc1cc2c(cc1NC(=O)CN1CCN(S(=O)(=O)c3ccc(C)cc3)CC1)oc1ccccc12,7.9µM*,?,-16%,0.3%,-9%,/,?,14%
Nc1ncnc2c1ncn2[C@@H]1O[C@H](CO)C[C@@H]1O,2%,/,/,-1.4%,-1%,-13%,/,/
CN1CCN(C(=S)NC(=O)c2cccc(S(=O)(=O)N(C)C)c2)CC1,/,-9%[46.1 µM],-12%,/,33%[activator],1%,-2%[46.1 µM],/
Nc1ccc(NC(=O)c2ccc(C(=O)Nc3ccc(N)cc3)cc2)cc1,/,14%[46.1 µM],11%,/,-1%,0%,-22%[46.1 µM],7%
CC(O)Cc1nsc(NC(=O)c2cccs2)n1 (stereo not given),8%,/,1%,-1.7%,22%,10%,/,-9%
O=C(NC1CC1)c1cc2ccccc2o1,/,/,-12%,/,13%,-3%,/,-7%
Cc1cccc(CC(=O)NCCS(=O)(=O)N2CCN(c3cccc(Cl)c3)CC2)c1,/,-19%,3%,/,-26%,5%,7%,/
O=C(Nc1cnn(Cc2c(Cl)cccc2Cl)c1)c1ccc([N+](=O)[O-])cc1,5%,9%,7%,-3.3%,15%,-2%,-5%[46.1 µM],9%
CCc1cc(C(=O)N2CCN(C(=O)c3ccco3)CC2)sc1C,/,-1%,-12%,/,-1%,2%,-12%,/
CCN(CC)c1ccc(NC(=O)c2c(C)noc2C)cc1,/,23%[46.1 µM],-7%,/,11%,22%,-1%[46.1 µM],-9%
Cc1cn2c(=O)cc(COc3cc(C)c(Cl)c(C)c3)nc2s1,6%,9%[46.1 µM],/,-3.4%,-2%,/,3%[46.1 µM],/
O=C(Nc1ccc(N2CCOCC2)cc1)c1ccc(Br)o1,/,?,-4%,/,-18%,-3%,?,0%
CSc1ncccc1C(=O)N1CCCC(N2CCN(c3ccccc3F)CC2)C1 (stereo not given),/,/,8%,/,-8%,?,/,7%
Cn1c(=O)cc(SCC(=O)NCCCN2CCOCC2)c2ccccc21,-3%,-6%,-15%,1.4%,18%,-9%,1%,-9%
